Arbovirus anti – blocks arbovirus infection. inhibition, % at 10 µM. AID 1251. arbovirus infection cell-based antiviral screen. 200,000 compounds, 0.37% hits;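 active = inhibition from about 30%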;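 also: bluetongue infection of BSR cells; cell survival read as ATP light after 72 h; 0% = infected wells without compound and 100% = uninfected wells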
Mtb growth – M. tuberculosis H37Rv growth inhibitors, H37Rv strain (AID 1626) | M. tuberculosis H37Rv growth inhibition; higher % means a stronger effect | inhibition, % at 10 µM, or IC50 in µM where a hit was titrated | 220,000 compounds, 0.95% hits;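 active = confirmed in a dose series; inconclusive = inhibition above 80% but not taken into the dose series; inactive = below 80% or under 30% at every dose of the series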;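 also: bacteria incubated seven days before Alamar blue readout; 0% = bacteria only wells and 100% = bacteria with antibiotic wells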
RecA splice inh – inhibitors of M. tuberculosis RecA intein splicing; inhibition, %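 (about 9 µM by stock and volumes)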; P9WHJ3; AID 2221; 290,000 compounds, 0.75% hits; cell-free RecA intein splicing, fluorescence; in the data active = inhibition above about 30%; inconclusive = no clear call, values can overlap the other calls;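 also: 0% = vehicle wells and 100% = reference inhibitor control wells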
Target sequence (P9WHJ3 whole entry, looked up, canonical isoform): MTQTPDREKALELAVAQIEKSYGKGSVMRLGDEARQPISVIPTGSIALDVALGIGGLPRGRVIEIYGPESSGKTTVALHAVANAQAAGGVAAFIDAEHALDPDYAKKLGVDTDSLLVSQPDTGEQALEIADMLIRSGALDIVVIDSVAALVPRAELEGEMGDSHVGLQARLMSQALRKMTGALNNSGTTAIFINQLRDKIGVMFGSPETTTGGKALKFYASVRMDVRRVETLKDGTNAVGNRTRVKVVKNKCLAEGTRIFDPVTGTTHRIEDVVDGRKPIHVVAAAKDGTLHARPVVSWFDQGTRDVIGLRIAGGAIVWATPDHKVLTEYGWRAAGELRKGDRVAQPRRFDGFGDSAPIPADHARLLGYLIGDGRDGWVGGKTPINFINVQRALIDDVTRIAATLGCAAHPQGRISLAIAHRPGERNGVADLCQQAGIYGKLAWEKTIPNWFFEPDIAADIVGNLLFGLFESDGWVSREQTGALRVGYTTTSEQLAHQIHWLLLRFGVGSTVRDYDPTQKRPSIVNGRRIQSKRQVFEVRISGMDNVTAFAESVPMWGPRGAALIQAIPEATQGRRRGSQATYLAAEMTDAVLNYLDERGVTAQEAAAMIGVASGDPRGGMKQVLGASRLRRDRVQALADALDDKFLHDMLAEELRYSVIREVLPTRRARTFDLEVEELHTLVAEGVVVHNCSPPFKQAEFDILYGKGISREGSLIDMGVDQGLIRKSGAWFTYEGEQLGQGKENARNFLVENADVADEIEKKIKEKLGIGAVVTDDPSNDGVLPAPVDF
Mtb betalactam – beta-lactam sensitization of Mtb H37Rv | M. tuberculosis H37Rv growth with meropenem, percent inhibition; hits of this screen are not shown here | inhibition, % at 25 µM | 330,000 compounds, 0.27% hits | AID 434955;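 active = about 74% or more and at least 40 points above the plate without the antibiotic, then above 30% in a dose series; inconclusive = first-round hits that could not be retested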;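 also: growth measured after seven days incubation then overnight dye step; 0% = bacteria only wells and 100% = bacteria with antibiotic; twin plates without the antibiotic show which effects depend on it; some results filed as inactive read as strong as hits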
YopH inh – YopH (Yersinia) phosphatase inhibition. fluorescence Ex485/Em525. inhibition, %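 (about 10 µM by stock and volumes)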. 140,000 compounds, 0.16% hits. AID 898;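 active = inhibition of 50% or more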;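 also: controls were vehicle for no effect and minimum signal wells for full effect; inactives centre near -20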
Arbovirus anti repeat – second read-out of Arbovirus anti, no call of its own (marks repeat the call); inhibition, %; measured here: 10K subset replicate screen; many hits read low in the repeat;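 first of two repeat runs on a subset; 0% = infected and 100% = uninfected wells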
Numbers without * were called inactive; ? = inconclusive; nt = no result given. A portion of the library; count on the stated rates, not on these rows.

SMILES	Arbovirus anti	Mtb growth	RecA splice inh	Mtb betalactam	YopH inh	others
O=C(Nc1ccc(F)cc1)C1CC(=O)n2cnnc2N1 (stereo not drawn)	5.0	0.3%	-3.3	2.5	nt
COCCN=C1N[C@@H](c2cccc(C(F)(F)F)c2)C(C(=O)OC)=C(C)N1Cc1ccccc1	nt	nt	1.6	14.7	nt
O=C(COC(=O)Cc1cccs1)Nc1ccc(OC(F)(F)F)cc1	nt	nt	-0.5	0.9	nt
Cc1cc(C(=O)NCc2cccs2)cs1	-1.1	6.8%	2.2	4.6	-16.2
COc1ccc(C(=O)Nc2nnc(C(F)(F)F)s2)cc1	7.1	28.5%	-1.4	31.0	-33.8
COCCNC(=O)CSc1n[nH]c(=O)n1CCc1ccccc1	nt	nt	-0.3	0.2	nt
CCCC(c1nnnn1C(C)(C)CC)N(Cc1ccco1)Cc1cc2ccc(OC)cc2[nH]c1=O (stereo not drawn)	-23.6	9.7%	5.5	nt	-22.1
O/N=C/c1ccnc(SCc2ccccc2)n1	nt	8.5%	5.8	29.7	nt
CN(C)/C=C(/C#N)C(=O)c1cccc(Oc2ccc(C(C)(C)C)cc2)c1	10.3	-9.1%	26.9	-1.1	3.3
COc1ccc(/C=c2\s/c(=C\C(=O)C(C)(C)C)[nH]c2=O)cc1O	nt	5.62µM*	-0.2	98.3	nt
O=[N+]([O-])c1cc(Cl)cc(/C=N/NC(=S)Nc2cc(S(=O)(=O)N3CCOCC3)ccc2Cl)c1O	nt	-1.1%	14.3	nt	nt
CN(C(=O)Nc1ccccc1)C1CCS(=O)(=O)C1 (stereo not drawn)	1.6	-3.6%	-1.2	-8.0	-8.8
Cc1ccc(NC(=O)c2nnn(-c3cc(C)cc(C)c3)c2N)cc1	11.5	6.0%	6.1	73.4	-48.9
O=C(Nc1cccn2ncnc12)c1ccc(Cl)cc1	-0.7	-13.7%	-1.3	-3.1	-38.9
COc1ccc(NC(=O)c2cccc(S(=O)(=O)N3CCc4ccccc43)c2)cn1	5.6	2.6%	7.9	2.8	nt
COCCCNC(=O)c1c(NC(=O)c2ccccc2)n(Cc2ccccc2)c2nc3ccccc3nc12	nt	-6.3%	27.3	4.7	-14.2
COC(=O)c1ccc(N2CCN(C(=O)C3CC3)CC2)c([N+](=O)[O-])c1	nt	nt	0.4	-2.3	nt
CCCC(=O)N1CCC(O)(c2cccc(F)c2)CC1	5.5	4.6%	-4.5	-0.5	nt
N#C/C(=C\c1cc([N+](=O)[O-])ccc1Cl)C(N)=O	5.1	-3.1%	4.1	-6.5	nt
C[C@H]1CCC(=O)N([C@H](CN=[N+]=[N-])Cc2ccccc2)CC1	nt	nt	-5.3	-3.7	nt
O=C(NCc1ccccc1)c1cccc(COc2ccc(Cl)cc2)c1	0.0	8.1%	-3.4	3.5	-5.8
N#Cc1cnc(SCC(=O)c2ccccc2)nc1N	7.1	-3.5%	-2.1	0.6	-5.0
CCC(=O)N1CCN(c2ccccc2NC(=O)c2ccc(-c3cccc([N+](=O)[O-])c3)o2)CC1	3.2	2.1%	7.8	2.2	-4.2
Cc1ccccc1CSc1nnc(-c2cccs2)n1Cc1ccco1	2.0	1.4%	15.2	-1.2	-8.1
COCCN(Cc1cn(C)nc1-c1ccccc1F)C(C)C	1.3	-4.5%	-2.4	-9.6	nt
SMILES	Arbovirus anti	Mtb growth	RecA splice inh	Mtb betalactam	YopH inh	others
Cc1ccc2c(Cl)cc(Cl)c(OCC(=O)NC(=O)NCc3ccco3)c2n1	-9.2	-0.6%	-0.3	42.2	-46.5
COc1cc(C(=O)Nc2cc(Cl)ccc2-n2cncn2)ccc1OC(F)F	nt	nt	1.6	-5.7	nt
CN1CCN(NC(=S)NC(C)(C)CC(C)(C)C)CC1	21.8	-4.5%	-0.8	-13.9	nt
CC(NCCN(C)C)C(=O)C12CC3CC(CC(C3)C1)C2 (stereo not drawn)	nt	6.2%	3.0	-3.7	nt
Cn1cc(CCC(=O)NCc2ccc3c(c2)OCO3)c2ccccc21	-10.2	-4.2%	-1.5	nt	-30.3
CCOC(=O)c1cn(CC)c2cc(N3CCSCC3)c(F)cc2c1=O	0.9	-13.3%	-5.0	-3.2	-36.8
O=C(N/N=C/c1ccoc1)c1ccc(Cl)cc1Cl	nt	nt	-0.3	-3.0	nt
Cc1ccc(-c2csc3ncnc(N4CCN(C(=O)c5ccccc5)CC4)c23)cc1	-20.9	15.7%	19.2	62.7	1.1
Fc1cc2ncn(Cc3ccccc3)c2cc1F	-4.7	-2.2%	9.6	-11.1	-4.8
COC(=O)[C@H](Cc1c[nH]c2ccccc12)NC(=O)NCc1ccccc1	nt	nt	-2.9	-16.0	nt
CN1CCc2nc3ccccc3c(C(=O)OCC(=O)N(CCC#N)c3ccccc3)c2C1	-2.1	-1.6%	-1.4	-10.8	nt
CCOc1ccccc1NC(=O)C(OC(=O)c1ccc(NC(=O)CC#N)cc1)c1ccccc1 (stereo not drawn)	nt	nt	4.1	-1.8	nt
Cc1nc2scc(C)n2c(=O)c1S(=O)(=O)N1CCN(c2ccc([N+](=O)[O-])cc2)CC1	nt	nt	-2.1	2.3	nt
O=S(=O)(CCN(CCS(=O)(=O)C(F)(F)F)CC1CCCO1)C(F)(F)F (stereo not drawn)	-5.9	-11.7%	-2.7	98.4	-43.9
OCCN(CCO)c1ncnc2c1sc1nc(N3CCOCC3)c3c(c12)CCCC3	-33.7	-1.2%	-3.7	-4.4	-8.5
CC1=NN(CCc2ccccn2)C(=O)CC1	nt	nt	-2.5	-3.0	nt
Cc1oc(-c2ccccc2Cl)nc1CSCC(=O)O	5.9	3.0%	9.1	-4.5	-51.7
COc1cc(-c2cc(-c3ccc(N)cc3)[nH]c(=O)c2C#N)cc(OC)c1OC	nt	nt	-39.7	6.6	nt
O=C(Cn1c2[n+](c3ccc(C(F)(F)F)cc31)CCCCC2)c1ccc2c(c1)OCCO2	-3.3	6.0%	5.6	1.7	nt
O=C(c1cc(-c2cccc(Cl)c2)on1)N1CCN(c2ccccc2)CC1	nt	nt	0.3	3.0	nt
Cc1ccc2c(NC(=O)c3ccco3)cccc2n1	nt	nt	-1.3	-4.9	nt
CC(C)c1cccc(C(C)C)c1NC(=O)CN1C(=O)NC2(CCCC2)C1=O	nt	nt	0.4	-1.7	nt
N#CCCN1CCN(S(=O)(=O)c2ccc3c(c2)OCCCO3)CC1	2.6	2.3%	-3.4	-8.9	-17.8
CCSc1nnc(NC(=O)CCC2CCCCC2)s1	nt	nt	1.5	0.2	nt
CCNC(=O)NC(=O)C(C)Sc1nc2ccccc2c(=O)n1-c1cccnc1 (stereo not drawn)	nt	nt	-2.4	0.2	nt
SMILES	Arbovirus anti	Mtb growth	RecA splice inh	Mtb betalactam	YopH inh	others
O=C(COC(=O)C1CC1)Nc1ccc(N=Nc2ccccc2)cc1	1.4	7.6%	-0.2	3.5	-7.6
Cc1cc(-c2ccc(N3C(=O)CCC3=O)c(C)c2)ccc1N1C(=O)CCC1=O	2.1	-1.0%	2.5	-3.2	-26.4
CCOC(=O)C1CCN(C(=O)Cn2cc3c(n2)CCC(C)C3)CC1 (stereo not drawn)	4.3	3.7%	-0.4	0.8	-37.8	Arbovirus anti repeat=4.1
CCc1ccc(N(CC(=O)NC(C)C)C(=O)CCC(=O)Nc2nccs2)cc1	nt	nt	-4.1	3.9	nt
COc1ccc(N(CC(=O)NC2CCCCC2)C(=O)CNC(=O)c2ccco2)cc1	-3.1	-8.3%	-0.8	-1.1	nt
Cc1cc(S(=O)(=O)NCCN2CCOCC2)c(C)s1	-0.2	2.1%	-1.7	-1.8	-55.1
Nc1ccc(-c2cnc[nH]2)cc1[N+](=O)[O-]	nt	-13.3%	0.6	3.8	nt
Cc1cccc(NC(=O)Cn2nc(-c3cccs3)ccc2=O)c1C	nt	nt	-0.9	-6.3	nt
Cc1ccc(N=C(NO)c2cnccc2C(F)(F)F)c(C)c1	nt	nt	3.1	3.9	nt
CCN(CC)S(=O)(=O)c1ccc(NS(=O)(=O)c2ccc(C)c(C)c2)cc1	1.8	-11.7%	2.7	-0.5	-31.4
CC(C)Cc1ccc(-c2cc(=O)[nH][nH]2)cc1	-2.1	4.7%	92.1*	-1.6	nt
COc1ccc(/C=C/C(=O)NC(=S)Nc2cc3oc4ccccc4c3cc2OC)cc1	-3.6	3.5%	-1.9	-2.8	-24.8
Cc1ccccc1OCC(=O)Nc1ccc(S(=O)(=O)N2CCCC2)cc1	nt	nt	2.9	-2.9	nt
O=C(NCc1ccccc1Cl)C1CCN(S(=O)(=O)N2CCCC2)CC1	nt	nt	-2.0	0.2	nt
Cn1c(N)c(C(=O)CSc2ccc3c(c2)OCCO3)c(=O)n(C)c1=O	16.8	-1.0%	2.6	-7.8	-26.6
O/N=C(/CN(O)/C=C1/C=CC=N1)c1cccs1	7.2	-15.0%	-1.8	-2.0	-40.6
COc1ccccc1NC(=O)CN1CCN(CC(=O)Nc2ccc(OCc3ccccc3)cc2)CC1	-8.2	?	-0.8	93.1	-58.5
CCN1/C(=C/c2ccc3cc(C)cc(C)c3[n+]2CC)Sc2cc(C)ccc21	-35.1	?	nt	nt	nt
CCCC(=O)N1CCN(c2ccc(NC(=O)c3ccc(Br)o3)cc2)CC1	5.4	-2.2%	-3.8	-5.6	-29.5
c1ccc2c(c1)NCC1CCCN21 (stereo not drawn)	nt	nt	-1.4	-2.8	nt
CCOC(=O)Cc1csc(Nc2c(C)n(C)n(-c3ccccc3)c2=O)n1	6.5	-11.9%	-1.5	-4.3	-32.1
CC(=O)Nc1ccc(Nc2nc(C(F)(F)F)nc3c2nnn3Cc2ccccc2Cl)cc1	nt	nt	-3.9	8.9	nt
COc1ccc(Cn2c(-c3ccccc3)nc3c(c(=O)c4ccccc4n3C)c2=O)cc1	1.0	-6.5%	-4.9	0.0	-28.3
CCN1C(=O)C(CC(=O)NC)N(NC(=O)c2ccccc2)C1=S (stereo not drawn)	1.1	6.6%	-0.3	-1.6	-9.9
Cc1ccc(-n2c(SCC(N)=O)nnc2-c2cnccn2)cc1	nt	2.5%	-0.7	-4.3	nt

Six neighbouring compounds out of the list so far:
SMILES	Arbovirus anti	Mtb growth	RecA splice inh	Mtb betalactam	YopH inh	others
c1ccc2c(c1)NCC1CCCN21 (stereo not drawn)	nt	nt	-1.4	-2.8	nt
CCOC(=O)Cc1csc(Nc2c(C)n(C)n(-c3ccccc3)c2=O)n1	6.5	-11.9%	-1.5	-4.3	-32.1
CC(=O)Nc1ccc(Nc2nc(C(F)(F)F)nc3c2nnn3Cc2ccccc2Cl)cc1	nt	nt	-3.9	8.9	nt
COc1ccc(Cn2c(-c3ccccc3)nc3c(c(=O)c4ccccc4n3C)c2=O)cc1	1.0	-6.5%	-4.9	0.0	-28.3
CCN1C(=O)C(CC(=O)NC)N(NC(=O)c2ccccc2)C1=S (stereo not drawn)	1.1	6.6%	-0.3	-1.6	-9.9
Cc1ccc(-n2c(SCC(N)=O)nnc2-c2cnccn2)cc1	nt	2.5%	-0.7	-4.3	nt

Going on with the list:
SMILES	Arbovirus anti	Mtb growth	RecA splice inh	Mtb betalactam	YopH inh	others
COCc1nnc(NC(=O)c2ccc3c(c2)OCO3)s1	5.4	1.6%	-1.6	0.5	nt
O=C(/C=C/c1cccc([N+](=O)[O-])c1)Nc1ccc(Cl)cn1	-19.0	8.7%	3.2	3.8	nt
CCOC(=O)N1CCN(Cc2ccc(F)cc2F)CC1	0.8	18.3%	-0.1	-0.8	-2.1
Cc1ccc(Nc2cc(C)nc3c(C)cccc23)cc1	nt	nt	0.8	1.9	nt
O=C(C1CCCO1)N1CCN(C(=S)Nc2ccc(F)c(Cl)c2)CC1 (stereo not drawn)	-5.0	-4.4%	-1.8	0.1	nt
CC(=O)Nc1ccc(S(=O)(=O)NNC(=O)c2cccc(Br)c2)cc1	1.9	3.1%	-4.7	7.9	nt
CNC(=O)CCc1ccc(OC)cc1	nt	-4.6%	-2.6	5.1	nt
O=C1c2ccccc2C(=O)N1CCCC(=O)N1CCc2ccccc21	-1.4	nt	-0.4	-5.3	10.2	Arbovirus anti repeat=1.0
COc1cccc(CNC(=O)CCNC(=O)c2ccco2)c1	nt	nt	-5.6	-0.4	nt
CCOC(=O)N1CCN(c2nc3c(c(=O)[nH]c(=O)n3C)n2Cc2ccccc2Cl)CC1	4.5	-7.8%	2.5	nt	-47.5
COC(=O)Cc1cc(=O)n2c(nc3ccccc32)[nH]1	nt	nt	0.2	-4.5	nt
CC1(C)O[C@@H]2CC3C4C[C@H](F)C5=CC(=O)C=CC5(C)C4C(O)CC3(C)[C@]2(C(=O)CO)O1 (stereo partly drawn)	nt	nt	3.2	-1.1	nt
CCOc1ccc(/C(C)=N/NC(=O)Cn2nc([N+](=O)[O-])cc2C)cc1	nt	-13.7%	-0.4	-7.0	nt
O=C(COc1ccc(Cl)cc1Cl)N1CCCN(C(=O)COc2ccc(Cl)cc2Cl)CC1	-33.8	5.5%	nt	4.9	-2.5

Bioassay records deposited in PubChem by several laboratories.
